Screens as filed in PubChem.
CYP2C9 inh – inhibitors of human CYP2C9. P11712. CYP2C9 Supersomes, luciferin-H conversion, luminescence. inhibition, % at 5 µM. hit rate 20% among 96,000;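 active = blocking of liver enzyme CYP2C9 beyond about 50% at 5 µM, limit read from the data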; also: values of inactives mirror those of a sister screen read the other way
LYP act – LYP (human) phosphatase activation; recombinant LYP, DiFMUP fluorescence; 0 = plate median, 100 = signal doubled; activation, % at 2 µM; hit rate 0.11% among 96,000;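 active = activation at 2 µM above a set limit, the mean plus 5 SD, cut at about 37% in these data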
LYP inh 2 – blocks human PTPN22 phosphatase activity; Q9Y2R2; recombinant LYP catalytic domain, DiFMUP fluorescence; inhibition, % at 2 µM; hit rate 0.21% among 96,000;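 active = inhibition at 2 µM at or above a set limit, the screen mean plus 3 SD, cut at about 24% in these data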;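 also: 0% = DMSO with enzyme and 100% = enzyme fully blocked by orthovanadate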
PostGolgi ctrl – yeast control strain growth, post-Golgi counter-screen. efflux-deficient yeast background strain, growth absorbance A615, 16 h. inhibition, % at 10 µM. hit rate 5% among 98,000. AID 738
PostGolgi yeast – growth inhibition of a yeast mutant, post-Golgi transport screen. post-Golgi transport phenotypic cell assay. inhibition, % at 10 µM. hit rate 0.9% among 98,000. AID 739;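 also: yeast cells grown in 1536-well plates; yeast grown about 18 h at 30C before absorbance read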
hDAT+cocaine – human DAT dopamine uptake with cocaine, either direction; Q01959; LLC-PK1 hDAT cells, [14C]-dopamine uptake with cocaine IC80; actives deviate in either direction; B-score at 10 µM; hit rate 1.3% among 110,000;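 active = Z score or B-score, a plate-position-corrected score, falls beyond the plate's 99.7% confidence bounds, in either direction; inactive = both scores lie inside the 99.7% bounds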;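 also: scored against the spread of the other compound wells on the same plate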
CYP2C9 act – activators of human CYP2C9; activation factor at 5 µM; P11712; recombinant CYP2C9, luciferin-H conversion, luminescence; hits give high values; factor 1 = untreated enzyme, 0 = blocked; hit rate 1.4% among 96,000; AID 1024;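 active = activation factor of 2 or more for CYP2C9 at a 5 µM dose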;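 also: 0 = sulfaphenazole-blocked wells and 1 = vehicle-only wells; values of inactives mirror those of a sister screen read the other way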
E coli WT exp – E. coli BW25113 growth inhibition, expanded screen. OD600 absorbance. growth inhibition, % at 100 µM. hit rate 0.15% among 98,000. AID 710;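 active = growth inhibition above about 50% at one test dose, limit read from the data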;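 also: growth measured after 20 h incubation at 37 °C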
The depositor's hits bear a star. Rule as the data show it, unless noted: active = inhibition above about 30%; inactive = the rest. Some of the compounds tested (hit frequency here may not be typical).

Sample of the layout, three compounds:
SMILES	CYP2C9 inh	LYP act	LYP inh 2	PostGolgi ctrl	PostGolgi yeast	hDAT+cocaine	CYP2C9 act	E coli WT exp
Cc1ccsc1C1Nc2ccc3ncccc3c2C2=C1C(=O)CC(C)(C)C2 (stereo not given)	80*	-16	18	10	-3	-1.7	0.2	0
COc1ccc(-c2cnc(N)nc2-c2ccc(OC)cc2O)cc1	19	-3	0	28	-6	0.74	0.8	3
O=C(O)c1ccc(F)c(S(=O)(=O)Nc2ccccc2)c1	17	-4	1	5	7	-0.43	0.8	-5

Main list, from the first entry:
SMILES	CYP2C9 inh	LYP act	LYP inh 2	PostGolgi ctrl	PostGolgi yeast	hDAT+cocaine	CYP2C9 act	E coli WT exp
Cc1ccsc1C1Nc2ccc3ncccc3c2C2=C1C(=O)CC(C)(C)C2 (stereo not given)	80*	-16	18	10	-3	-1.7	0.2	0
COc1ccc(-c2cnc(N)nc2-c2ccc(OC)cc2O)cc1	19	-3	0	28	-6	0.74	0.8	3
O=C(O)c1ccc(F)c(S(=O)(=O)Nc2ccccc2)c1	17	-4	1	5	7	-0.43	0.8	-5
Oc1[nH]c2ccccc2c1C=Nc1ccc2c(c1)OCCO2	-3	0	0	18	-11	1.1	1	-6
CCOc1ccc(-n2c(SCc3nc(-c4ccc(C)cc4)no3)nnc2-c2ccncc2)cc1	80*	-6	6	7	-3	0.89	0.2	-11
Cc1ccsc1C1Nc2ccc3ncccc3c2C2=C1C(=O)CCC2 (stereo not given)	85*	1	-2	0	-2	0.28	0.2	-3
O=C(CSc1nnc2scc(-c3ccccc3)n12)Nc1nsc(-c2ccccc2)n1	13	-17	12	11	7	0.15	0.9	-9
COc1cccc(Nc2nc(NCC3CCCO3)c3ccccc3n2)c1 (stereo not given)	29	-5	5	8	-5	0.084	0.7	45
O=C(Nc1cccc(-c2cn3ccccc3n2)c1)c1cc2ccccc2oc1=O	42	-13	18	2	-3	1.1	0.6	4
COc1ccc(N=Cc2c(O)[nH]c3ccccc23)cc1OC	3	2	-5	14	-6	0.076	1	-3
COc1ccc(-n2nc(C(=O)Nc3ccc(OC)c(OC)c3)c3c4ccccc4n(C)c3c2=O)cc1	21	-2	2	1	-1	0.73	0.8	-19

Taken from the results shown (2 entries):
SMILES	CYP2C9 inh	LYP act	LYP inh 2	PostGolgi ctrl	PostGolgi yeast	hDAT+cocaine	CYP2C9 act	E coli WT exp
Cc1ccsc1C1Nc2ccc3ncccc3c2C2=C1C(=O)CC(C)(C)C2 (stereo not given)	80*	-16	18	10	-3	-1.7	0.2	0
COc1ccc(-c2cnc(N)nc2-c2ccc(OC)cc2O)cc1	19	-3	0	28	-6	0.74	0.8	3

Complete entries as entered above. Screens in order: CYP2C9 inh	LYP act	LYP inh 2	PostGolgi ctrl	PostGolgi yeast	hDAT+cocaine	CYP2C9 act	E coli WT exp
O=C(CSc1nnc2scc(-c3ccccc3)n12)Nc1nsc(-c2ccccc2)n1 is listed with 13	-17	12	11	7	0.15	0.9	-9
COc1ccc(-c2cnc(N)nc2-c2ccc(OC)cc2O)cc1 is listed with 19	-3	0	28	-6	0.74	0.8	3
